# MLL AF4-AF9 inh: inhibitors of AF4 peptide binding to AF9, primary screen, biochemical, AlphaScreen, biotin-AF4 peptide, FLAG-AF9, single point; Protein AF-9 (Homo sapiens), P42568; inhibition, % at 10 µM; 350,000 tested, 0.47% active; AID 651704, 2012;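 active = every replicate reaching a set inhibition limit, whatever the replicate mean, cut at about 25% in these data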;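 also: 0% = plate neutral control median and 100% = total signal loss; the record names both 10 and 1 µM as test concentration; the first replicate is given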
# Target sequence (P42568 whole entry, looked up): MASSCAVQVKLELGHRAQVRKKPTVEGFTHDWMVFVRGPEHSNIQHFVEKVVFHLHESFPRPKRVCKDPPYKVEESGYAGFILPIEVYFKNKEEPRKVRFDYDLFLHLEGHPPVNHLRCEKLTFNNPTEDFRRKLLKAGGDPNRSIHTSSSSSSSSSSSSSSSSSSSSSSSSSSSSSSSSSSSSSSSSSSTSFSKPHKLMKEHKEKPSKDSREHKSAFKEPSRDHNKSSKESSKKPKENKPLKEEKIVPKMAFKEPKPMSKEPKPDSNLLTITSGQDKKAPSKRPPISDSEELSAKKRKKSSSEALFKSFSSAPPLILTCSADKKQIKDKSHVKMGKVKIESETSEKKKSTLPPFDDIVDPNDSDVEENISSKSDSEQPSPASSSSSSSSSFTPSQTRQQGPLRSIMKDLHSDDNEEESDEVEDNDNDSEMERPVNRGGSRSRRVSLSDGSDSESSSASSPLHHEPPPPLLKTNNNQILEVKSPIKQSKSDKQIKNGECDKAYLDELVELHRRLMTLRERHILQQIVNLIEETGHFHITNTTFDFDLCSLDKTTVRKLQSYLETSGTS
# FGF22 binding: binders of human FGF22 protein, primary screen, FGF22 synaptogenesis inhibitor project, biophysical, thermal shift, single point; 340,000 tested, 1.5% active; calls only at 9.99 µM; recombinant FGF22 thermal shift, SYPRO orange fluorescence; percent of sucrose octasulfate shift, DMSO zero; AID 651658, 2012;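 active = melting point raised past a set limit in the mean and every replicate; three in four hits are not shown here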
# Target sequence (Q9HCT0 whole entry, looked up): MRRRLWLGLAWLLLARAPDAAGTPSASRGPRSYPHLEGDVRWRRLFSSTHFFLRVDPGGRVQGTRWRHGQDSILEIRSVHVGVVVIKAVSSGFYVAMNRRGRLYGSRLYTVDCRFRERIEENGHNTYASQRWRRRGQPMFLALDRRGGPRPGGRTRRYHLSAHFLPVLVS
# * = called active by the depositor; i = inactive; nt = no result given. An excerpt. The share of hits here may be higher or lower than overall.
MLL AF4-AF9 inh | FGF22 binding | compound
-2.8 | i | COCC(=O)N(C)C[C@H]1Oc2ncc(C3=CCCCC3)cc2C(=O)N([C@H](C)CO)C[C@@H]1C
6.3 | i | CCCN(C)C[C@H]1Oc2cc(C#CCC(C)C)ccc2S(=O)(=O)N([C@H](C)CO)C[C@H]1C
3.8 | i | CO[C@H]1CN(C)C(=O)c2cc(NC(=O)c3ccc(-c4ccccc4)cc3)ccc2OC[C@H](C)NC[C@@H]1C
-0.5 | i | C[C@H](CO)N1C[C@H](C)[C@@H](CN(C)Cc2ccc(C(=O)O)cc2)OCCCC[C@H](C)Oc2ccc(NC(=O)NC3CCCCC3)cc2C1=O
2.0 | i | C[C@H]1CN([C@@H](C)CO)C(=O)c2cc(C#Cc3ccccc3)cnc2O[C@H]1CN(C)C(=O)c1ccccc1
-1.8 | i | CCS(=O)(=O)Nc1ccc2c(c1)C(=O)N(C)[C@H]1CC[C@@H](CC(=O)NC3CCCCC3)O[C@@H]1CO2
1.4 | i | C/C=C/c1cnc2c(c1)C(=O)N([C@H](C)CO)C[C@H](C)[C@@H](CN(C)C(=O)Nc1ccc(C(F)(F)F)cc1)O2
-1.1 | i | O=C(NCc1ccc2c(c1)OCO2)[C@H]1[C@H](CO)[C@H]2Cn3c(cccc3=O)[C@@H]1N2Cc1ccncc1
-3.1 | i | C[C@@H]1CN([C@H](C)CO)C(=O)c2cc(C#C[C@@H](C)O)cnc2O[C@H]1CN(C)C(=O)Nc1ccc(F)cc1
-3.0 | i | C[C@H]1CN([C@@H](C)CO)C(=O)c2cc(C#Cc3cccc(F)c3)cnc2O[C@H]1CN(C)C(=O)C1CCC1
0.2 | i | Cc1cc(C(=O)Nc2cccc3c2O[C@@H](CN(C)CC2CC2)[C@H](C)CN([C@H](C)CO)C3=O)n(C)n1
0.8 | i | C[C@@H](NC(=O)N(C)C[C@H]1OCc2ccccc2-c2c(n(C)c3ccccc23)C(=O)N([C@@H](C)CO)C[C@@H]1C)c1ccccc1

# Entries of single compounds, quoted from the list.
# CO[C@H]1CN(C)C(=O)c2cc(NC(=O)c3ccc(-c4ccccc4)cc3)ccc2OC[C@H](C)NC[C@@H]1C as listed: MLL AF4-AF9 inh = 3.8; FGF22 binding = i
# COCC(=O)N(C)C[C@H]1Oc2ncc(C3=CCCCC3)cc2C(=O)N([C@H](C)CO)C[C@@H]1C as listed: MLL AF4-AF9 inh = -2.8; FGF22 binding = i

# Additional records follow.
MLL AF4-AF9 inh | FGF22 binding | compound
-1.9 | i | C[C@H](CO)N1C[C@H](C)[C@H](CN(C)C(=O)Nc2cccc3ccccc23)Oc2ccc(NS(=O)(=O)c3ccc(F)cc3)cc2C1=O
0.5 | i | CCNC(=O)C[C@@H]1CC[C@H]2[C@@H](COC[C@@H](O)CN2S(=O)(=O)c2ccc(Oc3ccccc3)cc2)O1
6.2 | i | C[C@@H]1CN([C@@H](C)CO)C(=O)c2cc(NC(=O)CCCN(C)C)ccc2O[C@@H]1CN(C)Cc1ccc(-c2ccccc2)cc1
-1.2 | i | O=C(C[C@H]1C[C@@H]2c3cc(NC(=O)c4ccc5c(c4)OCO5)ccc3O[C@@H]2[C@@H](CO)O1)NCC1CC1
1.5 | i | C[C@H](CO)N1C[C@H](C)[C@H](CN(C)C(=O)Nc2cccc3ccccc23)Oc2ncc(-c3ccc(F)cc3)cc2C1=O
2.2 | nt | CN(C(=O)c1ccc(NC(=O)Cc2cccc(NC(=O)C3CCN(C(=O)CCc4ccccc4)CC3)c2)cc1)C1CC1
-1.1 | i | O=C(NCc1ccc(F)cc1)[C@@H]1[C@@H](CO)[C@@H]2Cn3c(cccc3=O)[C@@H]2N1C(=O)C1CC1
1.8 | i | COCC(=O)N1C[C@H](C)[C@H](OC)CN(C)C(=O)c2cc(NC(=O)c3ccc(F)cc3)ccc2OC[C@H]1C
7.1 | i | CCCNC(=O)Nc1ccc2c(c1)OC[C@@H](C)N(Cc1cncnc1)C[C@@H](C)[C@@H](OC)CN(C)C2=O
-4.9 | i | C[C@H]1CN([C@@H](C)CO)C(=O)c2cc(Br)cnc2O[C@@H]1CN(C)C(=O)NC1CCCC1
2.8 | i | COc1ccc(NC(=O)Nc2ccc3c(c2)C(=O)N([C@H](C)CO)C[C@@H](C)[C@H](CN(C)Cc2ccccc2)O3)cc1
2.3 | i | C[C@@H]1CN([C@@H](C)CO)C(=O)c2cc(-c3ccc(C#N)cc3)cnc2O[C@H]1CN(C)C(=O)Nc1ccc(F)cc1
3.6 | i | COc1ccc2c3c(n(C)c2c1)[C@H](CO)N(C(=O)CN1CCOCC1)CC31CN(C(=O)C2CC2)C1
2.2 | i | COc1ccc(S(=O)(=O)Nc2ccc3c(c2)C(=O)N([C@H](C)CO)C[C@@H](C)[C@@H](CN(C)Cc2ccncc2)OCCCC[C@@H](C)O3)cc1
-0.8 | i | C[C@H](CO)N1C[C@H](C)[C@H](CN(C)C)Oc2ccc(NC(=O)Cn3cnnn3)cc2CC1=O
7.4 | i | CC(C)NC(=O)Nc1ccc2c(c1)CC(=O)N([C@@H](C)CO)C[C@@H](C)[C@@H](CN(C)Cc1ccc(Oc3ccccc3)cc1)O2
12 | i | COc1ccc(-c2ccc3c(c2)[C@H]2[C@H](CCN2C(=O)Cc2cccnc2)[C@@H](CO)N3C)cc1
-0.3 | i | COc1ccc(S(=O)(=O)N(C)C[C@H]2Oc3cc(-c4cccc(F)c4)ccc3S(=O)(=O)N([C@H](C)CO)C[C@@H]2C)cc1
3.4 | i | CO[C@H]1CN(C)C(=O)c2cc(NC(=O)Nc3ccccc3F)ccc2OC[C@@H](C)N(C(C)=O)C[C@H]1C
-1.2 | i | CCC(=O)Nc1ccc2c(c1)C(=O)N(C)C[C@H](OC)[C@@H](C)CN(Cc1ccccn1)[C@@H](C)CO2
-1.1 | i | COc1ccc(S(=O)(=O)Nc2ccc3c(c2)CC(=O)N([C@@H](C)CO)C[C@H](C)[C@@H](CN(C)Cc2ccc(-c4ccccc4)cc2)O3)cc1
-0.8 | i | CCCN1[C@@H]2c3ccc(-c4cccc(OC)c4)c(=O)n3C[C@@H]2[C@@H](CO)[C@@H]1C(=O)OC
-1.9 | i | COc1ccc(NC(=O)N(C)C[C@H]2OCCCC[C@@H](C)Oc3ccc(NC(=O)Nc4ccc(C(F)(F)F)cc4)cc3C(=O)N([C@@H](C)CO)C[C@H]2C)cc1
1.1 | i | O=C(NCc1ccccc1)[C@H]1[C@H](CO)[C@H]2Cn3c(cccc3=O)[C@@H]1N2Cc1cccnc1
-1.0 | i | COc1ccc2c3c(n(C)c2c1)[C@H](CO)N(C(=O)c1ccc(F)cc1)CC31CCN(C(=O)c2ccc(F)cc2)CC1
0.1 | i | CCC(=O)N[C@@H]1CC[C@@H](CCn2cc(-c3cccc(OC)c3)nn2)O[C@@H]1CO
-2.4 | i | COc1ccc(-c2ccc3c(c2)[C@H]2[C@H](CCN2C(=O)c2cccc(F)c2)[C@H](CO)N3)cc1
-2.4 | i | C[C@H](CO)N1C[C@H](C)[C@@H](CN(C)Cc2ccc(C(F)(F)F)cc2)Oc2ccc(NC(=O)NC3CCCCC3)cc2C1=O
-23 | i | O=C(C1=C[C@H](c2ccc3c(c2)OCO3)C[C@H](OCc2ccc(CO)cc2)O1)N1CCCCC1
-8.5 | i | C[C@@H]1CN([C@H](C)CO)C(=O)c2ccccc2-c2ccccc2CO[C@@H]1CN(C)S(=O)(=O)c1cccs1
0.2 | i | CC(C)NC(=O)Nc1ccc2c(c1)C(=O)N([C@@H](C)CO)C[C@@H](C)[C@@H](CN(C)S(=O)(=O)c1ccc(F)cc1)OCCCC[C@H](C)O2
-1.0 | i | C[C@H]1CN([C@@H](C)CO)C(=O)c2cc(NC(=O)Nc3ccc(C(F)(F)F)cc3)ccc2O[C@@H]1CN(C)CC1CCCCC1
-0.3 | i | O=C(C[C@H]1CC[C@H]2[C@@H](COC[C@@H](O)CN2S(=O)(=O)c2cccc(Cl)c2)O1)Nc1ccccc1
-3.1 | i | CCC(=O)Nc1ccc2c(c1)OC[C@H](C)N(Cc1ccncc1)C[C@H](C)[C@H](OC)CN(C)C2=O
-2.6 | i | CNC[C@H]1Oc2c(NC(=O)C3CC3)cccc2C(=O)N([C@H](C)CO)C[C@H]1C
2.4 | i | OC[C@H]1[C@H](c2ccc(-c3ccccc3)cc2)[C@@H]2CN(Cc3cncnc3)CCCCN12
5.3 | i | O=C(C[C@@H]1CC[C@H]2[C@@H](COC[C@H](O)CN2Cc2nccs2)O1)N1CCC(Cc2ccccc2)CC1
-0.4 | i | C[C@@H]1CN([C@H](C)CO)C(=O)c2cccc(NS(=O)(=O)c3cn(C)cn3)c2O[C@H]1CN(C)S(=O)(=O)c1ccccc1
0.9 | i | C[C@H](CO)N1C[C@H](C)[C@@H](CN(C)S(=O)(=O)c2ccc(Cl)cc2)Oc2ccc(NC(=O)CCN3CCOCC3)cc2C1=O
-9.8 | i | C[C@@H]1CN([C@@H](C)CO)C(=O)Cc2cc(NC(=O)Nc3ccc(C(F)(F)F)cc3)ccc2O[C@@H]1CN(C)C(=O)Nc1ccc(C(F)(F)F)cc1
36* | i | C[C@@H]1CN([C@H](C)CO)C(=O)Cc2cc(N(C)C)ccc2O[C@H]1CN(C)Cc1ccc(-c2ccccc2)cc1
11 | i | C[C@H]1CCCCO[C@@H](CN(C)C(=O)CCCN(C)C)[C@@H](C)CN([C@@H](C)CO)C(=O)c2cc(NC(=O)Nc3ccccc3)ccc2O1
-3.6 | i | C[C@@H]1CCCCO[C@H](CN(C)C(=O)Cc2ccccc2)[C@@H](C)CN([C@H](C)CO)C(=O)c2cc(NS(=O)(=O)c3ccccc3)ccc2O1
-3.4 | i | C[C@@H]1CCCCO[C@H](CN(C)Cc2ccncc2)[C@H](C)CN([C@H](C)CO)C(=O)c2cc(NC(=O)NC3CCCCC3)ccc2O1
0.1 | i | CO[C@H]1CN(C)C(=O)c2ccc(NC(=O)C3CC3)cc2OC[C@H](C)N(C(=O)c2cnccn2)C[C@@H]1C
1.5 | i | C[C@@H]1CN([C@@H](C)CO)C(=O)c2cc(NC(=O)CCC(F)(F)F)ccc2O[C@@H](C)CCCCO[C@H]1CN(C)Cc1ccc2c(c1)OCO2
-15 | i | C[C@@H](NC(=O)[C@H]1[C@H](CO)[C@H]2Cn3c(ccc(-c4ccncc4)c3=O)[C@@H]1N2C)c1ccccc1
1.9 | i | Cc1ccc2nc(-c3cccc(Cl)c3)c(Cc3ccccc3C(F)(F)F)n2c1

# Another view of some results above.
C[C@H](CO)N1C[C@H](C)[C@@H](CN(C)Cc2ccc(C(F)(F)F)cc2)Oc2ccc(NC(=O)NC3CCCCC3)cc2C1=O
  MLL AF4-AF9 inh: -2.4; FGF22 binding: i
O=C(C1=C[C@H](c2ccc3c(c2)OCO3)C[C@H](OCc2ccc(CO)cc2)O1)N1CCCCC1
  MLL AF4-AF9 inh: -23; FGF22 binding: i
C[C@@H]1CN([C@H](C)CO)C(=O)Cc2cc(N(C)C)ccc2O[C@H]1CN(C)Cc1ccc(-c2ccccc2)cc1
  MLL AF4-AF9 inh: 36*; FGF22 binding: i
OC[C@H]1[C@H](c2ccc(-c3ccccc3)cc2)[C@@H]2CN(Cc3cncnc3)CCCCN12
  MLL AF4-AF9 inh: 2.4; FGF22 binding: i

# Additional entries follow.
MLL AF4-AF9 inh | FGF22 binding | compound
-4.5 | i | C[C@@H]1CN([C@H](C)CO)C(=O)c2cc(NC(=O)Cn3cnnn3)ccc2O[C@H]1CN(C)Cc1ccc(C(=O)O)cc1
3.4 | i | CO[C@@H]1CN(C)C(=O)c2ccc(NC(=O)Nc3cc(F)ccc3F)cc2OC[C@H](C)N(C)C[C@H]1C
-1.1 | i | C[C@@H]1CN([C@H](C)CO)C(=O)Cc2cc(NS(=O)(=O)c3ccccc3)ccc2O[C@@H]1CN(C)Cc1ccncc1
-1.2 | i | C[C@H](CO)N1C[C@H](C)[C@H](CN(C)C(=O)Nc2cccc3ccccc23)Oc2ncc(C#Cc3ccc(C(F)(F)F)cc3)cc2C1=O
-2.1 | i | CN1CCN(C(=O)C[C@@H]2CC[C@@H]3[C@H](COC[C@H](O)CN3CC3CC3)O2)CC1
16 | i | COc1ccc2c3c(n(C)c2c1)[C@H](CO)NCC31CN(C(=O)Nc2ccc(F)cc2F)C1
14 | i | C[C@H]1CN([C@@H](C)CO)C(=O)c2cccc(NS(C)(=O)=O)c2O[C@@H]1CN(C)Cc1ccc(-c2ccccc2)cc1
-13 | i | C[C@@H]1CCCCO[C@@H](CN(C)Cc2ccncc2)[C@H](C)CN([C@@H](C)CO)C(=O)c2cc(NS(=O)(=O)c3ccccc3)ccc2O1
0.5 | i | COc1cccc(-c2ccc([C@H]3[C@@H](CO)N4CCCCN(C(=O)NC(C)C)C[C@H]34)cc2)c1
-1.9 | i | C[C@@H]1CN([C@@H](C)CO)C(=O)c2cc(-c3ccncc3)cnc2O[C@H]1CN(C)Cc1ccc(F)cc1
-1.2 | i | C[C@@H]1CN([C@@H](C)CO)C(=O)c2cc(N(C)C)ccc2O[C@@H](C)CCCCO[C@@H]1CN(C)C(=O)NC1CCCCC1
3.5 | i | Cc1ccc(S(=O)(=O)N[C@H]2CC[C@H](CC(=O)NCc3ccccc3F)O[C@H]2CO)cc1
1.5 | i | CCCNC(=O)C[C@@H]1C[C@@H]2c3cc(NS(=O)(=O)c4ccc(F)cc4)ccc3O[C@@H]2[C@H](CO)O1
-1.4 | i | COc1cccc(S(=O)(=O)N2CCCCN3[C@H](CO)[C@H](c4ccc(-c5cccnc5)cc4)[C@H]3C2)c1
0.6 | i | O=C(CN1CCOCC1)NCC[C@@H]1CC[C@@H](NC(=O)c2ccc3c(c2)OCO3)[C@@H](CO)O1

# Bioassay records as filed in PubChem.
